Compound activity as filed in PubChem BioAssay.
S aureus helic: blocks Staphylococcus aureus DNA helicase. purified S. aureus helicase, fluorescence unwinding assay; about half of the hits fall short of the stated cut. inhibition, %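 (tested at about 80 µM)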. 0.05% of 120,000 active;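 active = both duplicates at 50% or more, or one of them with a favoured structure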;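 also: 0% = mean of negative control wells and 100% = mean of positive control wells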
MgrA-DNA mod: alters Staphylococcus aureus MgrA binding to DNA. fluorescence polarization. inhibition, %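 (about 10 µg/mL by stock and volumes)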. 0.13% of 84,000 active. AID 602314;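 active = above 50% in either of two replicates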;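 also: 0% = protein plus DNA without compound and 100% = DNA alone without protein; higher means less MgrA bound to DNA so lower polarization; one replicate is shown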
An asterisk follows results filed as active; nt = no result given; & = joins results of further samples. Not all compounds are listed. The share of hits here may be higher or lower than overall.

MgrA-DNA mod	S aureus helic	SMILES
-2.1	0	COc1ccc(-c2noc(C3CCCN(C(=O)Nc4ccccc4)C3)n2)cc1 (stereo unspecified)
-0.1	2	CSC(=Nc1ccc(Cl)cc1)NC#N
nt	-6	CCC(C)N=CC1=C(O)CC(C)(C)CC1=O (stereo unspecified)
2.3	nt	CCOc1ccc(C2=C(/C=c3/sc4nc5ccccc5n4c3=O)C(c3ccc(F)cc3)c3ccccc3O2)cc1 (stereo unspecified)
0.6	nt	Nc1cc2c(cc1Cl)C(=O)NC2=O
0.7	2	O=c1[nH]c2ccc(Cl)cc2c(-c2ccccc2)c1N1CCN(Cc2ccc3c(c2)OCO3)CC1
-1.2	5	NC(=O)CSc1nnc(-c2ccc(Cl)cc2Cl)n1C1CCCCC1
nt	19	COc1ccccc1-c1nc(SCC(=O)c2ccc(O)c(O)c2)n[nH]1

(more compounds)
MgrA-DNA mod	S aureus helic	SMILES
-0.8	3	CC1CCN(C(=O)CN2C(=O)C(C)(C)Oc3ccc(C(=O)NC(C)C)cc32)CC1
nt	-13	O=C1CC(c2ccco2)CC2=C1C(c1ccccc1)n1nc(C(F)(F)F)nc1N2 (stereo unspecified)
nt	-23	C=C1C(C(=O)Nc2ccc(F)cc2)C1C(=O)Nc1ccc(F)cc1 (stereo unspecified)
0.0	nt	CCOC(=O)Cc1csc(N)n1
nt	-13	Cc1ccc(NC(=O)c2cccc(S(C)(=O)=O)c2)cc1
3.5	7	Cc1nc2c(ccc3nc(NC(=O)c4cccc(Oc5ccccc5)c4)sc32)s1
nt	9	O=C(CSc1nc2ccccc2c(=O)n1Cc1ccccc1)NC1CCS(=O)(=O)C1 (stereo unspecified)
-0.1	14	COc1ccc(NC(=O)CC2(CC(=O)O)CCCC2)cc1

Next compounds.
MgrA-DNA mod	S aureus helic	SMILES
4.1&0.6	nt	COc1cc(NS(=O)(=O)c2ccc(N)cc2)ncn1
nt	-1	COc1ccc(/C=C/C(=O)Nc2ccc(S(=O)(=O)N3CCCC3)cc2)cc1
0.3	nt	Cc1onc(-c2c(Cl)cccc2Cl)c1NC(=O)OCCOc1cc(C(F)(F)F)ccn1
26	nt	Cc1ccc(OCCOc2ccc(Br)cc2C=C2C(=O)NC(=S)NC2=O)cc1
-0.2	1	CCOc1ccc(CCNc2ncnc3c2nc2n3CCCCC2)cc1OCC
nt	-5	Cc1ccc2c(CSc3nnc(C4CC4)n3C3CC3)cc(=O)oc2c1
-2.6	nt	O=C(Nc1ccc(Cl)cc1)c1cccnc1
1.4	-1	CCC(=O)NC(=S)Nc1ccc2oc(-c3ccccc3Cl)nc2c1

Next entries
MgrA-DNA mod	S aureus helic	SMILES
0.7	7	CCOC(=O)C(C)Sc1ncnc2nc[nH]c12 (stereo unspecified)
nt	-28	CN(c1ccc(Br)cc1)S(=O)(=O)c1ccc2c(c1)CCN2C(=O)CCC(=O)O
0.1	19	O=C(O)CCC(=O)Nc1ccccc1
nt	5	CCCN1CCC(N2CCCC(C(=O)N3CCCCCC3)C2)CC1 (stereo unspecified)
nt	-22	N#Cc1cc(C(=O)Nc2ccccc2)c(N)[nH]c1=S
nt	9	O=C(/C=C/c1nc2ccccc2o1)OCc1cccc(Cl)c1
0.3	-1	O=C(CSc1nnc(CNc2ccccc2)o1)N1CCc2ccccc21
0.0	nt	CC(C)Nc1nc(NC(C)C)nc(OCCOC(=O)c2ccccc2)n1

Five of these compounds in a different format.
canonical_smiles	MgrA-DNA mod	S aureus helic
CCCN1CCC(N2CCCC(C(=O)N3CCCCCC3)C2)CC1 (stereo unspecified)	nt	5
CC(C)Nc1nc(NC(C)C)nc(OCCOC(=O)c2ccccc2)n1	0.0	nt
CN(c1ccc(Br)cc1)S(=O)(=O)c1ccc2c(c1)CCN2C(=O)CCC(=O)O	nt	-28
O=C(O)CCC(=O)Nc1ccccc1	0.1	19
O=C(CSc1nnc(CNc2ccccc2)o1)N1CCc2ccccc21	0.3	-1

(more compounds)
MgrA-DNA mod	S aureus helic	SMILES
nt	10	CC(Nc1ncnc2sc3c(c12)CCC3)c1ccc(S(N)(=O)=O)cc1 (stereo unspecified)
nt	11	CN1C(=O)/C(=C(/C#N)C(=O)NCCc2ccccc2)c2ccccc21
-0.7	2	Cc1cc(C(=O)OCCN2CCN(C3=NS(=O)(=O)c4ccccc43)CC2)c2ccccc2n1
nt	16	Cc1cc2n(n1)CCCN2Cc1ccc(C(=O)N2CCc3ccccc32)cc1
nt	-2	O=C(O)C1(S(=O)(=O)c2ccccc2)CC1
0.3	nt	COC(=O)c1sc(SC)c(S(=O)(=O)C(C)C)c1SC
1.5	-6	COC(=O)c1ccc(N=NN2CCCCC2)cc1
nt	-10	COC(=O)c1ccc(OCC(=O)c2ccccc2OC)cc1

More records
MgrA-DNA mod	S aureus helic	SMILES
-0.7	nt	CC1CN=C(NS(=O)(=O)c2ccccc2)N1 (stereo unspecified)
1.2	9	N#CC(C(=O)NCc1ccccc1)c1ccccc1 (stereo unspecified)
nt	-18	CCOC(=O)c1c(C)oc2nc(C)nc(NC3CCN(C(=O)OCC)CC3)c12
-2.5	nt	COc1ccc(OC(C)C(=O)O)cc1 (stereo unspecified)
0.0	-3	CCOc1ccc(-c2nnc(-c3ccc(Br)cc3)o2)cc1OCC
6.3	2	COc1ccc(C(=O)COc2ccc3c(C)c(Cl)c(=O)oc3c2)cc1
-1.2	nt	CC(C)(C)c1cc(Cl)c(OS(=O)(=O)c2cc(Cl)cc(Cl)c2)c(Br)c1
nt	4	O=C(Nc1ccc(Cl)cc1)OCCn1nnnc1C(c1ccccc1)N1CCOCC1 (stereo unspecified)

The results go on:
MgrA-DNA mod	S aureus helic	SMILES
nt	-4	C=CCn1c(C)cc(C(=O)COC(=O)c2c(C)nn(Cc3ccccc3)c2C)c1C
nt	6	O=C(/C=C/c1cccs1)N1CCN(c2ccccc2)CC1
-0.8	-20	CCOC(=O)C1CCN(C(=O)/C=C/c2ccc(F)cc2)CC1
nt	6	CCOC(=O)N1CCC(C(N)=O)CC1
0.7	6	Cc1oc2c(c1C(=O)N1CCc3ccccc3C1)C(=O)c1ccccc1C2=O
5.7	4	COc1ccc(Cc2nn3c(-c4cccs4)nnc3s2)cc1OC
-3.6	2	CCCC(C)C(=O)Nc1ccc(-c2nc3ccccc3o2)cc1 (stereo unspecified)
-0.3	2	CC1(C)CC(=O)C2=C(C1)C(c1cccnc1)Nc1ccc3ccccc3c12 (stereo unspecified)

Other structures.
MgrA-DNA mod	S aureus helic	SMILES
nt	-5	COc1ccc(/C=C/C(=O)N=c2sccn2C)c(OC)c1
nt	-26	CS(=O)(=O)CCC(C(=O)Nc1ccccc1)N1Cc2ccccc2C1=O (stereo unspecified)
-1.7	nt	O=C(Nc1nnc(-c2ccccc2)s1)c1ccc(Br)c(S(=O)(=O)N2CCOCC2)c1
nt	11	O=C(c1csc(-c2ccccc2)n1)N1CCN(S(=O)(=O)c2ccc3c(c2)OCCCO3)CC1
-3.3	6	Cn1ccnc1C1(O)CCNCC1
0.5	nt	CC(C)c1ccc(NC(=S)Sc2ccc(F)cc2F)cc1
nt	15	CC(C)CNC(=O)c1ccc(COc2ccc(Cl)cc2Cl)o1
-1.5	nt	Cc1noc(C)c1-c1nc(CS(=O)(=O)Cc2ccc(Cl)cc2)no1

The list continues.
MgrA-DNA mod	S aureus helic	SMILES
20	-4	O=C(/C=C/c1ccco1)Oc1cccc(Oc2ccccc2)c1
6.0	-13	COc1ccccc1OCCn1cc(/C=C2/SC(=S)NC2=O)c2ccccc21
1.2	11	O=C(CCCn1c(=S)[nH]c2c(sc3ccccc32)c1=O)NC1CCCCCC1
nt	-11	CC1CCCC(C)N1/N=C/c1ccc(C#N)cc1 (stereo unspecified)
nt	-20	O=S(=O)(c1cccc(C(F)(F)F)c1)N1CCCC(n2nnc3ccccc32)C1 (stereo unspecified)
nt	2	O=C(CSc1nnc(-c2ccc(Cl)cc2)o1)OCC(=O)c1ccccc1
nt	8	Cc1csc(NC(=O)C(CC(C)C)NS(=O)(=O)c2ccc3c(c2)oc(=O)n3C)n1 (stereo unspecified)
nt	8	Cn1nc(-c2ccccc2)ccc1=O

Two records picked at random from the list so far, as already listed:
MgrA-DNA mod	S aureus helic	SMILES
nt	-11	CC1CCCC(C)N1/N=C/c1ccc(C#N)cc1 (stereo unspecified)
20	-4	O=C(/C=C/c1ccco1)Oc1cccc(Oc2ccccc2)c1

Next section:
MgrA-DNA mod	S aureus helic	SMILES
0.7	12	O=C1NC(c2ccccc2)(C(F)(F)F)SC2=NCCCN12 (stereo unspecified)
nt	-11	COc1ccccc1C(=O)COC(=O)Cn1nnc2ccccc21
nt	-3	CCc1cccc(-n2c(N3CCOCC3)n[nH]c2=S)c1
nt	-3	Cc1c(CC(=O)N2CCCC2)c(=O)oc2cc(O)ccc12
nt	13	CC(C)N1CC2(c3ccccc3)CN(C(C)C)CC(c3ccccc3)(C1)C2=O
nt	-3	Cc1cc(C)cc(NC(=O)C2CC2C)c1 (stereo unspecified)
-3.8	14	Cc1nc2cc(-c3ccccc3)nn2c(C)c1CCC(=O)N1CCCC1
-0.2	nt	O=[N+]([O-])c1cc(C(F)(F)F)cc([N+](=O)[O-])c1O/N=C1\CSCc2ccccc21

(more compounds)
MgrA-DNA mod	S aureus helic	SMILES
0.8	4	COc1ccc(NC(=O)N2CCCC2C(=O)Nc2ccccc2)cc1 (stereo unspecified)
4.0	nt	CC1=C(C(=O)OCCOC(C)C)C(c2coc3ccccc3c2=O)C2=C(CCCC2=O)N1 (stereo unspecified)
-3.6	nt	Cc1c(-c2nc(-c3ccc(C(C)(C)C)cc3)no2)n(C)oc1=O
0.6	-4	Cc1cccc(N2CCN(C(=O)CC3(CC4=NS(=O)(=O)c5ccccc5N4)CCCC3)CC2)c1C
nt	-12	CCn1cc(SCC(=O)N2CCc3ccccc32)c2ccccc21
nt	-15	Cc1noc(C)c1CCNC(=O)c1ccc(NC(=O)C2=CSCCO2)cc1
1.4	nt	Cc1ccc(CC2S/C(=N/c3ccccn3)NC2=O)cc1 (stereo unspecified)
-1.2	17	Brc1ccc(C=Nc2cccc3ccccc23)s1

Single records (already shown). Screens in order: MgrA-DNA mod, S aureus helic
CC1=C(C(=O)OCCOC(C)C)C(c2coc3ccccc3c2=O)C2=C(CCCC2=O)N1 (stereo unspecified) is entered as 4.0, nt
Cc1cccc(N2CCN(C(=O)CC3(CC4=NS(=O)(=O)c5ccccc5N4)CCCC3)CC2)c1C is entered as 0.6, -4
Cc1noc(C)c1CCNC(=O)c1ccc(NC(=O)C2=CSCCO2)cc1 is entered as nt, -15
Cc1c(-c2nc(-c3ccc(C(C)(C)C)cc3)no2)n(C)oc1=O is entered as -3.6, nt
Cc1ccc(CC2S/C(=N/c3ccccn3)NC2=O)cc1 (stereo unspecified) is entered as 1.4, nt

The listing continues:
MgrA-DNA mod	S aureus helic	SMILES
nt	-1	O=S(=O)(c1cccc(CSc2nnc(-c3cccs3)n2-c2ccccc2)c1)N1CCOCC1
-0.3	3	COc1ccccc1C(=O)Nc1nn2c(-c3ccccc3C)nnc2s1
nt	-25	CCOc1ccc(C=Nc2ccc(C(=O)O)cc2)c(O)c1
nt	-9	N#CCCn1c2c(c3ccccc31)CCc1ccccc1-2
0.1	nt	N#Cc1cccc(CSc2nnc(SCc3cccc(C#N)c3)s2)c1
2.5	6	O=C(Nc1ccccc1)/C(=C/c1ccccc1)NC(=O)c1ccccc1
nt	-11	CN(Cc1ccc(Cl)c(Cl)c1)CN1C(=O)NC2(CCCC2)C1=O
nt	14	CCOc1ccc(-c2cc(CCCC(=O)Nc3cc(OC)ccc3OC)no2)cc1

Other compounds.
MgrA-DNA mod	S aureus helic	SMILES
nt	-3	O=C(CN1C(=O)c2ccccc2C1=O)ON1C(=O)CCC1=O
nt	-14	CC(NCCN1C(=O)S/C(=C\c2ccc(C)cc2)C1=O)=C(C#N)C#N
-2.2	-1	CC[n+]1ccc(/C=C/c2ccc(OC)c(OC)c2OC)cc1
-1.0	-15	O=c1[nH]cc(C(F)(F)F)cc1Cl
-0.6	3	Cc1ccc(C)c(N2CCN(CCCNC(=O)c3nnc(Cc4c(F)cccc4Cl)o3)CC2)c1
-0.2	nt	CN(C)c1ccc(C(=O)C(F)(F)F)cc1
0.9	4	CC(=O)OCC(=O)Nc1ccccc1C#N
nt	-7	O=C(/C=C/c1ccc(Br)o1)OCC(=O)N1CCN(S(=O)(=O)c2ccc3ccccc3c2)CC1

(next part)
MgrA-DNA mod	S aureus helic	SMILES
nt	-25	Cc1cc(-c2csc(NCc3ccccc3)n2)c(C)n1CC1CCCO1 (stereo unspecified)
-1.9	18	Clc1cccc(Cl)c1COc1ccccn1
2.7	9	Cc1ccc(NC(=O)c2ccccc2)s1
-2.4	nt	COC(=O)c1sc(C(C)(C)C)cc1N
3.2	7	Cc1ccc(S(=O)(=O)Nc2nnc(CC(C)(C)C)s2)cc1
nt	20	COc1cc2c(cc1NC(=O)CN1CCN(S(=O)(=O)c3ccc(F)cc3)CC1)oc1ccccc12
nt	2	Cc1ccc(N(Cc2ncc(-c3ccccc3)o2)S(=O)(=O)c2ccc3c(c2)OCCO3)cc1
nt	19	O=C(CSc1nnc2n1CCCCC2)N1N=C(c2ccco2)CC1c1ccco1 (stereo unspecified)

(continued)
MgrA-DNA mod	S aureus helic	SMILES
-1.2	12	CCSc1nc(C(F)(F)F)c(C(=O)c2ccccc2)cc1C#N
3.0	-1	NC(=O)Cn1nnc2sc3c(c2c1=O)CCCC3
2.8	nt	CCN(CC)CCn1c(NC(C)=O)nc2ccccc21
nt	-3	Cc1sc2ncnc(Nc3ccc4c(c3)OCCCO4)c2c1C
nt	-2	CC1Sc2ccc(C(=O)Oc3ccccc3C#N)cc2NC1=O (stereo unspecified)
0.8	1	COc1ccc(-c2noc(NCCCN3CCCC3=O)n2)cc1OC
nt	13	Cc1ccccc1-n1nc(-c2cccnc2)cc1C(=O)NN
-4.5	nt	CN1CCN(CC(O)(c2ccc(F)cc2)c2ccc(F)cc2)CC1
0.6	8	CCn1cc(CN(C)C(=S)Nc2ccc(Br)cc2Cl)c(C)n1
nt	16	CS(=O)(=O)c1ccc2ccn(O)c2c1
